KCNQ2 enhance: potentiators of rat KCNQ2 potassium channel; B-score at 10 µM; CHO-K1 KCNQ2, FluxOR thallium flux fluorescence; hits give high values; 0.54% of 310,000 active;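 active = fluorescence ratio B-score at least 3 SD of library B-scores, with initial fluorescence B-score within 3 SD, cut at about 5.3 in these data; same plate scores as AID 2156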;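 also: B-score of peak minus minimum over baseline fluorescence ratio after K+ and Tl+ stimulus; positive B-score means potentiation of KCNQ2 with more thallium influx and brighter signal; only the inactives scoring about 0 or higher are listed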
Target sequence (O88943 whole entry, looked up): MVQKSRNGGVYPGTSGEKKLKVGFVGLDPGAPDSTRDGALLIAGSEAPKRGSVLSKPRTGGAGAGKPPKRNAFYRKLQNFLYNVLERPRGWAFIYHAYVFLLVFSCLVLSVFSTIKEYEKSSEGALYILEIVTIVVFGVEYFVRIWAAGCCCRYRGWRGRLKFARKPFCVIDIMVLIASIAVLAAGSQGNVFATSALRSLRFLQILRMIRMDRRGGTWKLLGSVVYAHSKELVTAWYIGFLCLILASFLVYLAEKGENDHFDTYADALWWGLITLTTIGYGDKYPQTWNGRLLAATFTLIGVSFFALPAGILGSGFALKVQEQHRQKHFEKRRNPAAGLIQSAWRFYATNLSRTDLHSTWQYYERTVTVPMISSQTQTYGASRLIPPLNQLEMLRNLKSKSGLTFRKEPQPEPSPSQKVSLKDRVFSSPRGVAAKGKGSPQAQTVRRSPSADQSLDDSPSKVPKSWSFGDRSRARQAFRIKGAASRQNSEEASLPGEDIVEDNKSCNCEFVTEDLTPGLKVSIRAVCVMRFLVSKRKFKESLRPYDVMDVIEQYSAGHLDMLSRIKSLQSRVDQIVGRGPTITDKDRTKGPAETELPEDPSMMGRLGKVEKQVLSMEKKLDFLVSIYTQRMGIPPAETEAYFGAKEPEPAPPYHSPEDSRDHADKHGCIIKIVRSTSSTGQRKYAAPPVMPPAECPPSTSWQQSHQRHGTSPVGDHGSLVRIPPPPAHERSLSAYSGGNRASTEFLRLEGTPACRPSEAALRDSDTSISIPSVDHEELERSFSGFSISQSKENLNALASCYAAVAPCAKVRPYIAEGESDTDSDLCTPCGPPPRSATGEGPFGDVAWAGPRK
KCNQ2 enhance baseline: also measured in KCNQ2 enhance; calls as there; B-score; compound at 10 µM; measured here: initial fluorescence intensity artifact check;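 brightness before thallium and not channel activity; 0 = typical well and far values either way flag optical interference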
Active calls of the source: *. The list is partial; rates above refer to the full screens.

SMILES	KCNQ2 enhance	KCNQ2 enhance baseline
O=C(Nn1cnnc1)c1cccc(S(=O)(=O)N2CCOCC2)c1	0.67	-0.84
COc1ccc(C(CC(=O)c2ccccc2)S(=O)(=O)c2ccccc2)cc1 (stereo not given)	1.09	0.07
O=C(CC(=O)NC1CCCCC1)N/N=C/c1ccc(Cl)cc1	0.03	0.3
CCOc1cc(NC(=S)NC)c(OCC)cc1NC(=O)c1cccs1	0.55	-0.01
CC(C)n1cnc2c(Nc3ccc(C(=O)O)cc3)nc(Cl)nc21	1.64	-0.16
O=C(CSc1nc(-c2ccccc2)ns1)N1CCOCC1	0.13	0.57
O=C(c1cc(F)ccc1F)C1CCCN(C(=O)CCN2CCCCO2)C1 (stereo not given)	0.68	1.89
COc1ccc(C2=CC(=O)OC3(CCCC3)O2)cc1	0.02	0.16
C/C(=N/NC(=O)CNC(=O)c1ccco1)c1ccc(Cl)cc1	0.46	-1.01
O=C(NCc1ccncc1)C12CC3CC(CC(Cl)(C3)C1)C2	1.11	0.04
O=C(Nc1cnccn1)Nc1ccc(Cl)cc1Cl	0.16	1.4
CCN1CCN(CC(=O)N2N=C(c3cccs3)CC2c2ccc(C)cc2)C(=O)C1=O (stereo not given)	0.9	-1.43
Cc1ccc(NC2c3ncccc3C(=O)N2Cc2cccs2)cc1 (stereo not given)	0.45	0.05
Cc1cc(SCC(=O)OCC(=O)N2CCCC2=O)c(C)cc1Br	1.06	0.01
Cc1ccc(NC(=O)COC(=O)c2ccc3c(c2)NC(=O)C2CCCN32)cc1 (stereo not given)	1.07	-2
O=C(NC1CCCCC1)C(c1cccnc1)N(C(=O)c1csnn1)c1ccccc1 (stereo not given)	0.52	0.14
CCC(C)NS(=O)(=O)c1ccc(OCC(=O)N2CCC(C)CC2)cc1 (stereo not given)	1.76	-2.02
COc1ccc(C2CC(c3ccc(Cl)cc3)=NN2C(C)=O)cc1 (stereo not given)	0.13	0.64
COc1ccccc1-c1nc(C(N)=O)c2[nH]c(=O)n(-c3cccc(C)c3)c2n1	0.41	-0.05
c1ccc(-c2noc(-c3ccc4c(c3)OCO4)n2)cc1	0.11	1.3
O=C(/C=C/c1ccco1)NCCc1ccccc1	1.06	-0.67
COc1cccc(OC)c1OCC(O)CN1CCN(c2ccccc2)CC1 (stereo not given)	1.53	0.2
O=C(c1cc2cc(Br)ccc2[nH]1)N1CCc2ccccc21	0.36	-0.44
COc1ccc(N(CC(O)CN2C(=O)NC(C)(C)C2=O)S(=O)(=O)c2ccc(C)cc2)cc1 (stereo not given)	0.03	0.1
O=C(Nc1cc2c(cc1C(=O)O)OCCCO2)c1ccc(C(F)(F)F)cc1	0.54	-0.15
SMILES	KCNQ2 enhance	KCNQ2 enhance baseline
CC(C)CCC(C)NC(=O)C1CCN(S(=O)(=O)/C=C/c2ccccc2)CC1 (stereo not given)	0.56	-0.89
O=C(COc1ccccc1)N/N=C/c1cc2c(cc1[N+](=O)[O-])OCO2	0.91	0.86
Cc1ccc(NC2CCCN(C(=O)c3cnc4ccccn4c3=O)C2)cc1C (stereo not given)	2.27	0.01
Cc1c(C=O)c2cc(OCc3ccccc3)ccc2n1C	0.75	0.62
OCCCNc1ncnc2sc3c(c12)CCN(Cc1ccccc1)C3	0.46	-0.82
Cc1oc2c(c1C(=O)O)C(=O)c1ccccc1C2=O	0.13	0.63
COc1ccc(OC)c(NC(=O)CCN2CCCC(C)C2)c1 (stereo not given)	0.13	-0.76
O=C(CSc1nnnn1-c1ccccc1)Nc1nsc(-c2ccc(Cl)cc2)n1	0.2	0.15
CCn1c(CCNC(=O)c2cccs2)n[nH]c1=S	0.45	0.63
CC1Cc2ccccc2N1C(=O)CSc1nnnn1C(C)C (stereo not given)	0.84	0.99
COc1ccccc1NS(=O)(=O)c1cc(NC(=S)Nc2cc(C)cc(C)c2)ccc1Cl	0.45	-1.03
CC(Oc1ccc(Br)cc1)C(=O)NCC(C)(C)N1CCOCC1 (stereo not given)	1.82	-0.62
Cc1nc2oc3c(NCC4CCCO4)ncnc3c2c2c1COC(C)(C)C2 (stereo not given)	2.94	0.06
Cc1cccc(NC(=O)CSc2nnc(NC(=O)CN3CCCCC3)s2)c1	0.66	-1.22
COc1cc(/C=N/Nc2nc(=O)[nH]nc2C)cc([N+](=O)[O-])c1O	0.53	0.01
Cc1cc(-c2ccco2)n(CC(=O)NCCN(C)C)n1	0.9	-0.43
COCCCNc1nc2ccccc2nc1NS(=O)(=O)c1cccc(Cl)c1	1.14	-0.89
CCN(Cc1cccc(OC)c1)CC1CCCN(CCc2cccc(OC)c2)C1 (stereo not given)	1.63	1.37
Cn1cc(CNC(=O)c2sc3cccc(Cl)c3c2Cl)cn1	1.36	-1.75
CSc1nncc(-c2ccccc2)n1	1.08	0.1
O=C(CCn1c(=O)oc2ccccc21)N1CCN(c2ccccc2F)CC1	1.38	1.68
Cc1ccc(NC(=O)c2ccc3ccccc3n2)cc1S(=O)(=O)N1CCOCC1	0.1	0.54
O=C1c2ccccc2C(=O)N1CC1CCCO1 (stereo not given)	0.09	-0.42
CCN(CC)C(=O)Cn1cc(S(=O)(=O)CC(=O)NCc2ccc(C)cc2)c2ccccc21	0.06	0.38
Cc1oc2cc3oc(=O)c(CCC(=O)NCCCN4CCOCC4)c(C)c3cc2c1C	1.26	0.61
SMILES	KCNQ2 enhance	KCNQ2 enhance baseline
CC1CCCCN1CCCNC(=O)c1ccc2c(=O)n(CCc3ccccc3)c(=O)[nH]c2c1 (stereo not given)	3.04	0.26
CCOC(=O)c1c(NC(=O)COC(=O)c2ccc(C)s2)sc2c1CC(C)(C)NC2(C)C	2.7	-2.71
CCNC(=S)Nc1cc(OCC)c(N2CCOCC2)cc1OCC	0.33	-0.33
CCOc1ccc2nc(NC(=O)C3=NNC(=O)CC3)sc2c1	1.59	-1.67
CCCCN(CCCC)CCCNC(=O)Cn1cc2c(n1)-c1c(oc(C(=O)N3CCCC3)c1C)CC2	1.09	-0.07
COc1cc(/C=N/NC(=O)c2ccncc2)ccc1OC(=O)c1ccc([N+](=O)[O-])cc1	0.01	0.02
COc1ccc(NS(=O)(=O)c2ccc(-c3ccccn3)s2)cc1	0.89	-1.13
CCCN1CCC(=O)N(CCSc2ccc(OC)cc2)CC1	1.41	0.04
COc1cccc(CC(NC(C)=O)C(=O)NC2CCN(c3c(Cc4ccccc4)c(C)nc4ncnn34)CC2)c1OC (stereo not given)	0.01	-0.01
O=C(CCN1C(=O)/C(=C/c2cccc(Br)c2)SC1=S)Nc1cccnc1	1.22	-1.39
COc1cc([N+](=O)[O-])ccc1NC(=O)c1cccc(NC(=O)C(C)C)c1	0.42	-1.42
O=C(COc1ccc(S(=O)(=O)N2CCOCC2)cc1Cl)NCc1ccco1	1.06	-1.56
O=C(Cc1ccc(F)cc1)Nc1ccccc1N1CCCC1	10.8*	0.19*
COc1ccc(S(=O)(=O)C(C#N)c2nc3ccccc3nc2N2CCC(C)CC2)cc1 (stereo not given)	1.44	-0.37
CCC(=O)N1CCN(c2c(Cl)cccc2[N+](=O)[O-])CC1	0.41	-0.02
Cc1c(C(=O)NCc2cccnc2)oc2ccc(S(=O)(=O)N3CCCC(C)C3)cc12 (stereo not given)	1.3	0.02
CCCC(c1nnnn1CS(=O)(=O)c1ccc(C)cc1)N1CCN(c2ccccc2)CC1 (stereo not given)	0.22	-0.39
CC(NC(=O)Cn1cnc2c1c(=O)n(C)c(=O)n2C)c1ccccc1 (stereo not given)	0.11	-0.38
CCN1CCN(C(=O)CCn2c(=O)c3cccn3c3cccnc32)CC1	0.55	1.48
O=C(CCCn1c(=O)[nH]c2ccc(Br)cc2c1=O)NCc1ccc(Cl)cc1	0.01	-1.27
COC(=O)c1sc2cnccc2c1N	0.93	-0.22
Cc1cccc(NC(=O)c2ccc3c(=O)n4c(nc3c2)CCCCC4)n1	1.96	-0.48
O=C1c2ccccc2C(=O)N1CCSc1ncn[nH]1	1.81	0.83
Cc1noc(C)c1CSc1nnc2scc(-c3ccc(Cl)cc3)n12	1.61	0.1
Cc1ccc(Cl)c(OCC(=O)NN2CCN(C)CC2)c1	0.63	-0.82

Rewritten with values under each structure: five of the compounds above
The line under a structure holds: KCNQ2 enhance	KCNQ2 enhance baseline
- COc1ccc(NS(=O)(=O)c2ccc(-c3ccccn3)s2)cc1
    0.89	-1.13
- CCCC(c1nnnn1CS(=O)(=O)c1ccc(C)cc1)N1CCN(c2ccccc2)CC1 (stereo not given)
    0.22	-0.39
- O=C(CCCn1c(=O)[nH]c2ccc(Br)cc2c1=O)NCc1ccc(Cl)cc1
    0.01	-1.27
- CCN1CCN(C(=O)CCn2c(=O)c3cccn3c3cccnc32)CC1
    0.55	1.48
- Cc1c(C(=O)NCc2cccnc2)oc2ccc(S(=O)(=O)N3CCCC(C)C3)cc12 (stereo not given)
    1.3	0.02

Next section.
SMILES	KCNQ2 enhance	KCNQ2 enhance baseline
CCOC(=O)c1cc(CC)sc1NC(=O)C1CC1	0.59	-0.87
CN(CC(=O)NCCc1ccc(Cl)cc1)S(=O)(=O)c1ccc2c(c1)c(=O)n(C)c(=O)n2C	2.38	-0.94
CCOc1ccc(-c2nnn(CCC(=O)O)n2)cc1OC	0.15	0.48
Cc1ccccc1-n1c(=O)[nH]c(=O)c2c(N)c(C(=O)c3ccc(Cl)cc3)sc21	0.1	-0.04
COc1cc(/C=C/C(=O)O)cc(Br)c1O	0.42	-1.43
COCCNC(=O)c1onc(CSc2cc(C)ccc2C)c1C(=O)O	0.34	-1.86
C=CCc1cccc2cc(C(=O)N(CC)CC)c(=O)oc12	0.72	0.65
CC(C)OC(=O)CSc1nnc(-c2ccc([N+](=O)[O-])cc2)o1	0.19	-1.12
COc1ccccc1NC(=O)CSc1ccc(-c2cccs2)nn1	0.55	-1.4
CCCCN1C(=O)C(O)(c2ccccc2)c2cc(Br)ccc21 (stereo not given)	1.22	0.11
O=C(NC(=S)Nc1ccc(F)c(Cl)c1)C1CC1	1.54	1.21
COCCCNC(=O)CSc1ccc(Cl)cc1	1.26	-0.04
Nc1cc(N)cc(C(=O)OCC(=O)Nc2cc(S(=O)(=O)N3CCCCC3)ccc2Cl)c1	0.55	0.33
O=C(N/N=C/c1ccncc1)c1ccc(OCc2ccccc2)cc1	1.08	-1
O=C(NCC(=O)N(c1ccccc1F)C(C(=O)NCC1CCCO1)c1ccccc1)c1ccco1 (stereo not given)	0.72	-0.32
COc1cccc(NC(=S)N2CCn3c(nc4ccccc43)C2)c1	0.2	0.01
O=C(O)Cn1nc(-c2ccccc2)oc1=O	0.02	2.74
O=C(Oc1ccccc1Cl)c1ccc(-n2cncn2)nc1	0.53	1.04
COc1ccccc1/C=C/CN1CCC(n2nccc2NC(=O)C2CC2)CC1	1.31	-0.79
O=C(CSc1ccc(-c2ccc(F)cc2)nn1)NCCc1ccccc1	0.58	0.01
Clc1ccc(C2=Nn3c(nnc3-c3n[nH]c4c3CCC4)SC2)cc1Cl	1.9	-0.97
O=C(c1ccccc1Cl)N1CCN(S(=O)(=O)N2CCCCC2)CC1	0.85	1.56
COc1ccc(C(=O)NCC2OCCc3ccccc32)cc1OC (stereo not given)	0.12	0
CNC(=O)Nc1ccccc1NC(=O)NC	2.25	-0.25
O=[N+]([O-])c1ccc(O)c(/C=N/n2cnnc2)c1	0.67	2.08

Arranged by value in KCNQ2 enhance baseline (largest number first): 3 of the compounds above.
SMILES	KCNQ2 enhance	KCNQ2 enhance baseline
CCOc1ccc(-c2nnn(CCC(=O)O)n2)cc1OC	0.15	0.48
O=C(NCC(=O)N(c1ccccc1F)C(C(=O)NCC1CCCO1)c1ccccc1)c1ccco1 (stereo not given)	0.72	-0.32
CCOC(=O)c1cc(CC)sc1NC(=O)C1CC1	0.59	-0.87

Full records, quoted from the list. Order of values: KCNQ2 enhance	KCNQ2 enhance baseline
CC(C)CCC(C)NC(=O)C1CCN(S(=O)(=O)/C=C/c2ccccc2)CC1 (stereo not given) is listed with 0.56	-0.89
CC(C)OC(=O)CSc1nnc(-c2ccc([N+](=O)[O-])cc2)o1 is listed with 0.19	-1.12

Remaining list, next part:
SMILES	KCNQ2 enhance	KCNQ2 enhance baseline
COCCOC(=O)c1[nH]c2c(c1C)C(=O)CC(c1ccc(F)cc1)C2 (stereo not given)	1.46	1.27
CC(OC(=O)Cn1cnc2c1c(=O)n(C)c(=O)n2C)C(=O)N(C)c1ccccc1 (stereo not given)	1.33	0.05
CC12CCC(=O)N1C(C(=O)OCC(=O)Nc1cccc(S(=O)(=O)N3CCCCCC3)c1)CS2 (stereo not given)	2.45	0.26
CN1C(=S)SC(/[N+]([O-])=C/c2ccc(Cl)cc2)C1(C)C (stereo not given)	1.98	0.28
Cc1cccc(N2CCN(Cc3oc(CO)cc(=O)c3O)CC2)c1C	0.76	-1.94
CCCC(=O)OCC(=O)Nc1ccc(OC(F)F)cc1	0.14	1.54
COCCOc1ccc(C(F)(F)F)cc1NC(=O)COC(=O)c1c(C)noc1C	0.07	0.81
COc1cccc(-c2cc(C(F)(F)F)c(C#N)c(=O)[nH]2)c1	0.28	0
CC1=C(C(N)=O)C(c2ccccc2[N+](=O)[O-])n2ncnc2N1 (stereo not given)	0.51	0
CC(C)C1Cc2c(sc3c2c(=O)n(Cc2ccccc2)c2nncn32)CO1 (stereo not given)	0.61	-0.61
Cn1c(Cn2c(=O)sc3ccccc32)nnc1SCC(=O)Nc1ccccc1	1.22	-0.11
O=C(COc1ccc(C(=S)N2CCOCC2)cc1)N1CCCC1	0.44	-1.49
C=COCCNC(=O)C(=O)NC(C)C	1.26	-1.87
CCOc1ccc(-n2c(SCC(=O)Nc3cc(C)on3)nc3c([nH]c4ccccc43)c2=O)cc1	0.16	-1.34
O=C1/C(=C\c2ccncc2)SC(=S)N1C1CCCCC1	0.53	-0.28

Screening data deposited in PubChem BioAssay by Johns Hopkins Ion Channel Center.
